MLL AF4-AF9 inh: MLL-AF4/AF9 protein interaction inhibition. AID 651704. AlphaScreen, biotin-AF4 peptide binding to FLAG-AF9. 0.47% of 350,000 active. inhibition, % at 10 µM. P42568;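 active means every replicate reaching a set inhibition limit, whatever the replicate mean, cut at about 25% in these data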;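 further: 0% = plate neutral control median and 100% = total signal loss; the record names both 10 and 1 µM as test concentration; the first replicate is given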
Target sequence (P42568 whole entry, looked up): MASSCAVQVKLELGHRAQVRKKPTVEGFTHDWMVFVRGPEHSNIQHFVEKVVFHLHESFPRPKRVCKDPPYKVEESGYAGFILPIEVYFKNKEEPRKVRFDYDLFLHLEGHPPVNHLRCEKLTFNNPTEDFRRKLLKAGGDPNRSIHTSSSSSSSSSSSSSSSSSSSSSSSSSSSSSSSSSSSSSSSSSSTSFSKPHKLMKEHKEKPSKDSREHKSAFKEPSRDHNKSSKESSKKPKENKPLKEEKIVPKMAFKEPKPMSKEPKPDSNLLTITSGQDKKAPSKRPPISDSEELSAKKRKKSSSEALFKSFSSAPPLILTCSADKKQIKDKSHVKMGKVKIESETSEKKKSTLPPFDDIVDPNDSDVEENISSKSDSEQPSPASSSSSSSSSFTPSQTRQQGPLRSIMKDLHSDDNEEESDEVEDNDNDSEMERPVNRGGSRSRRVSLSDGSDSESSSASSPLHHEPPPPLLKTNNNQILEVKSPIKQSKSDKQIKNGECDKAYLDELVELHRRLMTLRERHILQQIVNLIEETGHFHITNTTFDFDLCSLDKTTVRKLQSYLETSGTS
Ecoli rRNA inh: selective bacterial rRNA inhibition in E. coli; E. coli WT GFP vs humanized-ribosome RFP mutants, fluorescence, 24 h; hits give low values; DMSO median 0, no signal -100; 1.6% of 350,000 active; GFP signal change (wild-type ribosome), % (test concentration not listed);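 active means significant combined selectivity score with lowered wild-type GFP, culture density cut under 30%, mutant RFP and density less affected; inactive means any of these conditions unmet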; further: one replicate is shown; some compounds called inactive have numbers as strong as hits
FGF22 binding: FGF22 (human) thermal shift binding | 1.5% of 340,000 active | calls only at 9.99 µM | recombinant FGF22 thermal shift, SYPRO orange fluorescence; percent of sucrose octasulfate shift, DMSO zero;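 active means melting point raised past a set limit in the mean and every replicate; three in four hits are not shown here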
Target sequence (Q9HCT0 whole entry, looked up): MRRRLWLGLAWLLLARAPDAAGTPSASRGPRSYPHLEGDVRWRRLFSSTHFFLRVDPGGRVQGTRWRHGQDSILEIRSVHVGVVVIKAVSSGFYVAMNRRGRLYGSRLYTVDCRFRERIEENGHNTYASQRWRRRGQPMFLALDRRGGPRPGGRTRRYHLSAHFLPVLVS
Ecoli rRNA inh OD600: also measured in Ecoli rRNA inh; calls as there; OD600 change, %; measured here: OD600 growth;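 optical density of the mix in the first replicate; 0 = DMSO median and -100 = no signal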
Ecoli rRNA inh RFP: second read-out of Ecoli rRNA inh, no call of its own (marks repeat the call); RFP signal change, %; measured here: RFP humanized mutant strains;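 first replicate; 0 = DMSO median and -100 = no signal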
Numbers without * were called inactive; i = inactive; & = joins results of further samples. An excerpt; rates above refer to the full screens.

MLL AF4-AF9 inh	Ecoli rRNA inh	Ecoli rRNA inh OD600	Ecoli rRNA inh RFP	FGF22 binding	structure
-1.3	3.8	1.9	-6.4	i	COCCNC(=O)C1(C)Cc2c(-c3cccc(C(N)=O)c3)ccnc2O1 (stereo not given)
2.9	-1.1	9.9	-3.1	i	COCCNC(=O)[C@H]1[C@H](CO)[C@H]2Cn3c(ccc(-c4ccccc4F)c3=O)[C@H]2N1C(=O)C1CCCC1
-3.0	-5.9	1.0	-0.9	i	C[C@H]1CN([C@@H](C)CO)C(=O)c2cc(-c3ccc(F)cc3)cnc2O[C@@H]1CN(C)C(=O)C1CCC1
2.7	-2.4	-0.1	-0.4	i	C[C@@H]1CN([C@H](C)CO)C(=O)c2cccc(NS(=O)(=O)c3ccc(Cl)cc3)c2O[C@@H]1CN(C)C(=O)Nc1cccc2ccccc12
0.4&-7.3	4.7&6.3	5.2&9.6	1.7&-4.6	i	C[C@@H]1CN([C@@H](C)CO)C(=O)c2cc(Br)cnc2O[C@@H]1CN(C)Cc1cncnc1
2.9	5.9	17.2	17.9	i	CCc1nc2ccc(C(=O)Nc3cc(-c4ccccc4)ccc3OC)cn2c1N(C)Cc1ccc(Cl)cc1
2.3	0.2	-5.3	3.4	i	C[C@H](CO)N1C[C@H](C)[C@@H](CN(C)Cc2ccc(Oc3ccccc3)cc2)Oc2ccc(NC(=O)Nc3ccc(F)cc3)cc2C1=O
0.0	-8.0	-13.9	-0.1	i	O=C(c1cccnc1)N1CC2(C1)[C@H](c1ccccc1)[C@H](CO)N2Cc1ccc(Cl)cc1
0.9	1.6	-1.8	1.9	i	Cc1ccc(S(=O)(=O)N(C)C[C@@H]2Oc3ccc(NC(=O)Nc4ccc(F)cc4)cc3CC(=O)N([C@H](C)CO)C[C@H]2C)cc1
-1.3	3.2	1.2	-1.0	i	C[C@@H]1CN([C@H](C)CO)C(=O)c2cccc(NC(=O)c3ccncc3)c2O[C@@H]1CN(C)C(=O)Nc1ccc(F)cc1
0.9	2.4	3.8	1.2	i	CCC(=O)N1[C@@H]2CN(C(=O)NC(C)C)c3ccccc3[C@@H]2[C@@H]1CO
-1.3	1.9	5.8	1.9	i	Cc1noc(C)c1S(=O)(=O)Nc1ccc2c(c1)CC(=O)N([C@H](C)CO)C[C@@H](C)[C@@H](CN(C)C(=O)Nc1ccc(C(F)(F)F)cc1)O2
3.5	3.9	3.1	4.0	i	C[C@@H]1CN([C@@H](C)CO)C(=O)c2cc(NC(=O)Nc3ccc4c(c3)OCO4)ccc2O[C@@H](C)CCCCO[C@@H]1CN(C)Cc1ccc2c(c1)OCO2
1.8	-10.1	-9.8	5.3	i	O=C(c1cc(-c2cccnc2)nc2ccccc12)N1CCN(S(=O)(=O)c2ccc(Cl)s2)CC1
-2.7	-0.3	9.3	-2.1	i	CN(C[C@@H]1[C@H](c2ccccc2)[C@H](CO)N1C(=O)c1ccccc1)C(=O)C1CC1
-1.4	2.4	1.4	1.6	i	CC(C)NC(=O)Nc1cccc2c1O[C@@H](CN(C)S(=O)(=O)c1cccs1)[C@@H](C)CN([C@@H](C)CO)C2=O
0.0	0.7	12.8	-2.6	i	C[C@@H]1CN([C@H](C)CO)S(=O)(=O)c2ccc(-c3cncnc3)cc2O[C@H]1CN(C)C(=O)NC1CCCC1
-1.9	4.9	13.0	-1.5	i	COCC#Cc1ccc([C@@H]2[C@H]3CN(C(=O)CN(C)C)CCCCN3[C@H]2CO)cc1
4.4	-31.1	-67.5	0.4	i	C[C@@H]1CN([C@H](C)CO)S(=O)(=O)c2ccc(C#CC3CC3)cc2O[C@H]1CN(C)C(=O)c1cccc(F)c1
-0.1	3.2	6.2	-1.4	i	O=C(N[C@@H]1C=C[C@H](CC(=O)N2CCOCC2)O[C@H]1CO)c1ccc2c(c1)OCO2
-0.6&-1.6	0.3&24.4	0.7&15.4	-1.5&2.0	i	C[C@@H]1CN([C@H](C)CO)C(=O)CCCn2cc(nn2)CO[C@H]1CN(C)C(=O)c1ccc2ccn(C)c2c1
0.2	3.8	14.8	3.2	i	CN1C(=O)c2cc(NC(=O)c3cnccn3)ccc2OC[C@@H]2O[C@H](CC(=O)O)CC[C@H]21
-1.5	2.3	11.1	-1.7	i	N#CCCCc1cn(-c2nc3ccccc3s2)nn1
-0.4	-2.7	-8.7	1.1	i	CC(C)NC(=O)N(C)C[C@H]1OCCCC[C@@H](C)Oc2ccc(NS(=O)(=O)c3ccc(Cl)cc3)cc2C(=O)N([C@@H](C)CO)C[C@H]1C
-2.0	0.1	-0.4	-3.1	i	CN1CCN(C(=O)C[C@@H]2CC[C@@H]3[C@H](COc4ccc(NC(=O)c5cscn5)cc4C(=O)N3C)O2)CC1
-4.8	-1.1	0.3	-1.1	i	C[C@@H]1CN([C@H](C)CO)C(=O)c2cc(NC(=O)CCCCCC(=O)Nc3ccccc3N)ccc2O[C@@H](C)CCCCO[C@@H]1CN(C)C(=O)C1CCCCC1
-1.9	0.7	0.9	-0.3	i	CO[C@@H]1CN(C)C(=O)c2ccc(NC(=O)C3CCCC3)cc2OC[C@@H](C)N(C)C[C@@H]1C
7.2	2.3	-27.5	4.3	i	CC(=O)NC(c1ccccc1)c1nc(-c2cccc(C(C)C)c2)cs1 (stereo not given)
0.8	4.9	3.5	7.9	i	COc1cc(CCC(N)c2cccc(O)c2)cc(OC)c1OC (stereo not given)
-5.0	0.4	-8.5	12.8	i	COc1ccc(C(C)(O)c2nc(-c3ccc4ccccc4c3)cs2)cc1 (stereo not given)

Compound profiles (already shown).
Listed for `Cc1ccc(S(=O)(=O)N(C)C[C@@H]2Oc3ccc(NC(=O)Nc4ccc(F)cc4)cc3CC(=O)N([C@H](C)CO)C[C@H]2C)cc1` → MLL AF4-AF9 inh = 0.9; Ecoli rRNA inh = 1.6; Ecoli rRNA inh OD600 = -1.8; Ecoli rRNA inh RFP = 1.9; FGF22 binding = i
Listed for `C[C@@H]1CN([C@H](C)CO)C(=O)c2cccc(NS(=O)(=O)c3ccc(Cl)cc3)c2O[C@@H]1CN(C)C(=O)Nc1cccc2ccccc12` → MLL AF4-AF9 inh = 2.7; Ecoli rRNA inh = -2.4; Ecoli rRNA inh OD600 = -0.1; Ecoli rRNA inh RFP = -0.4; FGF22 binding = i

The list goes on.
MLL AF4-AF9 inh	Ecoli rRNA inh	Ecoli rRNA inh OD600	Ecoli rRNA inh RFP	FGF22 binding	structure
6.2	-1.8	-4.1	-0.7	i	COc1cccc(NC(=O)Nc2ccc3c(c2)C(=O)N(C)C[C@@H](OC)[C@H](C)CN(CC2CC2)[C@H](C)CO3)c1
0.4	-12.1	-22.0	12.8	i	O=C(C[C@H]1C(=O)N(C2CCCCC2)C[C@@H]1c1ccccc1)Nc1ccc(Br)cc1
-0.2	10.2	12.5	0.0	i	O=C(NNC(=O)c1cccc2ccccc12)c1ccc(F)cc1
2.5	-2.9	3.8	1.7	i	COC(=O)C[C@H]1C[C@H]2c3cc(NC(=O)c4ccc5c(c4)OCO5)ccc3O[C@H]2[C@H](CO)O1
0.7	3.9	-2.6	2.1	i	CCC(=O)NC[C@H]1[C@H](c2ccc(C3=CCCC3)cc2)[C@H](CO)N1C(C)=O
-27.9	0.5	-3.7	-1.5	i	O=C(Nc1ccccc1F)N[C@@H]1CC[C@@H](CCNC(=O)C2CCCCC2)O[C@@H]1CO
1.3	-4.2	-13.3	-3.1	i	CN(C(=O)c1cccc(NC(=O)Cc2cccc(NC(=O)C3CCN(C(=O)C4CCCC4)CC3)c2)c1)C1CCC1
0.7	0.8	6.5	-2.7	i	C[C@H](CO)N1C[C@H](C)[C@@H](CN(C)C(=O)c2ccncc2)Oc2ncc(C3=CCCCC3)cc2C1=O
4.3	-19.2	-60.4	2.9	i	CCC(CC)C(=O)N(C)c1c(C)nc2c(OCC3CCCCC3)cccn12
-1.7	1.2	-0.3	-2.3	i	C[C@@H]1CN([C@@H](C)CO)C(=O)c2c(c3ccccc3n2C)-c2ccccc2CO[C@H]1CN(C)C(=O)c1ccc(F)cc1
-2.4	0.4	-5.0	2.0	i	C[C@H](CO)N1C[C@H](C)[C@@H](CN(C)C(=O)NC2CCCCC2)OCCCC[C@H](C)Oc2ccc(NC(=O)C3CCCCC3)cc2C1=O
-2.8	-0.5	-0.8	-4.0	i	O=C(C[C@H]1CC[C@H](NC(=O)Nc2ccccc2)[C@H](CO)O1)NCc1cccc(F)c1
-7.6	6.2	5.6	-1.9	i	C[C@H]1CN([C@@H](C)CO)C(=O)c2cccc(NS(C)(=O)=O)c2O[C@H]1CN(C)CC1CC1
1.1	-1.0	6.9	1.6	i	C[C@@H]1CCCCO[C@H](CN(C)S(=O)(=O)c2ccccc2)[C@@H](C)CN([C@@H](C)CO)C(=O)c2cc(NC(=O)c3ccncc3)ccc2O1
6.1	-1.8	1.2	4.8	i	COc1ccccc1-c1ccccc1[C@@H]1[C@@H](C#N)N(C(=O)C2CCC2)[C@@H]1CO
-2.2	-54.1	-75.9	-4.0	i	CCCNC(=O)C[C@@H]1CC[C@H]2[C@@H](COC[C@H](O)CN2C(=O)Nc2cccc(Cl)c2)O1
7.2	3.7	2.7	1.1	i	O=C(C[C@H]1CC[C@H]2[C@@H](COC[C@H](O)CN2Cc2ccc(Cl)cc2)O1)Nc1nccs1
1.3	-1.3	-9.2	2.2	i	Cc1ccc(S(=O)(=O)Nc2ccc3c(c2)C(=O)N([C@H](C)CO)C[C@H](C)[C@H](CN(C)C(=O)Nc2cccc4ccccc24)O3)cc1
-1.1	35.0	29.1	4.8	i	COc1ccc(Cc2c(C(C)(C)C)nc3ccc(Cl)cn23)c(C)c1
-2.1	-2.1	-7.1	-2.3	i	CCOC(=O)C1=CCN(S(=O)(=O)c2ccccc2C)C1c1ccc(Cl)c(Cl)c1 (stereo not given)
1.0	1.2	3.1	-1.8	i	CCNC(=O)C[C@H]1CC[C@H](NS(=O)(=O)c2ccc(C)cc2)[C@H](CO)O1
-0.5	-4.4	2.1	-3.6	i	CCS(=O)(=O)Nc1ccc2c(c1)C(=O)N(C)[C@@H]1CC[C@H](CC(=O)NC3CCCCC3)O[C@@H]1CO2
-2.0	-2.7	-11.4	-5.2	i	CCCCn1nnnc1C(c1ccccc1)N1CCN(c2ccccc2)CC1 (stereo not given)
-6.5	-2.2	-15.1	-0.8	i	COc1ccc(S(=O)(=O)Nc2ccc3c(c2)C(=O)N([C@@H](C)CO)C[C@@H](C)[C@H](CN(C)S(=O)(=O)c2ccc(C)cc2)O3)cc1
6.5	2.5	-2.8	0.5	i	Cc1ccc(S(=O)(=O)Nc2ccc3c(c2)CC(=O)N([C@@H](C)CO)C[C@H](C)[C@H](CN(C)C(=O)Nc2ccc(C(F)(F)F)cc2)O3)cc1
-0.7	-2.8	3.7	-0.9	i	CC(C)NC(=O)N(C)C[C@H]1Oc2ccc(NC(=O)c3ccncc3)cc2C(=O)N([C@@H](C)CO)C[C@@H]1C
-13.6	5.0	6.3	0.2	i	C[C@H]1CN([C@@H](C)CO)C(=O)c2cc(-c3ccccc3F)cnc2O[C@H]1CN(C)Cc1cccc(C(=O)O)c1
1.8	-5.1	-21.4	3.4	i	COc1ccc(CN(C)C[C@@H]2Oc3ccc(NC(=O)Nc4ccc(C(F)(F)F)cc4)cc3CC(=O)N([C@@H](C)CO)C[C@@H]2C)cc1
-7.7	3.4	8.6	-0.9	i	CC(C)c1ccccc1OCC(=O)Nc1nnc(C2CC2)s1
-0.7	2.9	-0.3	0.8	i	C[C@@H]1CN([C@@H](C)CO)C(=O)c2cc(NC(=O)Nc3ccc(C(F)(F)F)cc3)ccc2O[C@@H]1CN(C)Cc1ccc(Oc2ccccc2)cc1
-6.0	2.7	-3.4	-2.2	i	O=C(C[C@H]1C=C[C@H](NC(=O)c2ccc(F)cc2)[C@H](CO)O1)NCc1ccncn1

3 of the compounds above, field by field:
> Cc1ccc(S(=O)(=O)N(C)C[C@@H]2Oc3ccc(NC(=O)Nc4ccc(F)cc4)cc3CC(=O)N([C@H](C)CO)C[C@H]2C)cc1
  MLL AF4-AF9 inh = 0.9
  Ecoli rRNA inh = 1.6
  Ecoli rRNA inh OD600 = -1.8
  Ecoli rRNA inh RFP = 1.9
  FGF22 binding = i
> C[C@@H]1CN([C@H](C)CO)C(=O)c2cccc(NC(=O)c3ccncc3)c2O[C@@H]1CN(C)C(=O)Nc1ccc(F)cc1
  MLL AF4-AF9 inh = -1.3
  Ecoli rRNA inh = 3.2
  Ecoli rRNA inh OD600 = 1.2
  Ecoli rRNA inh RFP = -1.0
  FGF22 binding = i
> CCC(=O)N1[C@@H]2CN(C(=O)NC(C)C)c3ccccc3[C@@H]2[C@@H]1CO
  MLL AF4-AF9 inh = 0.9
  Ecoli rRNA inh = 2.4
  Ecoli rRNA inh OD600 = 3.8
  Ecoli rRNA inh RFP = 1.2
  FGF22 binding = i
